Assay outcomes from PubChem.
AID504770 = E. coli YBA685 growth inhibition, screen for V. cholerae RctB inhibitors; E. coli YBA685 rctB-dependent plasmid, OD600 growth, 3 h; active compounds read low; z-score (no concentration beside the values); 0.27% of 130,000 active; AID 504770;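 active means z-score under -2 on both plates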;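 further: wells of about 30 µL received 100 nL stock; score is relative to mean and SD of the test wells; the first replicate is given; strong numbers were not always called active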
Ba CapD inh = inhibitors of Bacillus anthracis CapD enzyme; purified CapD enzyme, fluorescence intensity read-out; active compounds read low; some hits fall short of the stated cut; z-score (test concentration not listed); 0.23% of 140,000 active;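 active means z-score under -4 in either of two replicates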;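 further: stock transfer was 100 nL into about 40 µL; score is relative to mean and spread of the plate; one replicate is shown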
An asterisk follows results filed as active; . = not tested or not shown.

SMILES | AID504770 | Ba CapD inh
O=C(COc1ccc(Cl)cc1Cl)OCC(=O)N1CCCc2ccccc21 | 0 | -0.725
O=C(NCCn1cnc2cccnc21)Nc1ccccc1-c1ccccc1 | -0.2 | .
O=C(CSC1CCCC1)c1ccccc1 | 0.85 | .
CCN(CC)c1ncnc2c1cnn2-c1ccc(OC)cc1 | 1 | 6.95
COc1ccccc1NC(=O)CSc1nncn2c1cc1oc(C)cc12 | 1.75 | -0.57
CCOC(=O)c1sc2nc(SCC(=O)c3ccc(Br)cc3)n(N)c(=O)c2c1C | 0.55 | 0.595
Cn1cc(Cl)c(C(=O)NCC(=O)c2ccccc2)n1 | -0.4 | -0.645
CNS(=O)(=O)c1cc(C(=O)N2CCN(c3ccccc3)CC2)ccc1OC | -1 | -0.19
Cc1cc(=O)[nH]c(Nc2nc3ccccc3[nH]2)n1 | -0.1 | .
Fc1ccc(-c2ccnc3ncnn23)cc1 | -0.5 | 6.08
N#Cc1cccc(CSc2nnc(-c3ccccc3O)n2Cc2ccccc2)c1 | -1.05 | 0.165
C[N+](C)(Cc1ccc(Cl)cc1)NCc1ccc(Cl)cc1 | 0.65 | 0.485
CCN(CC)CCOC(=O)c1ccc(NC(=O)CN2C(=O)S/C(=C\c3ccccc3)C2=O)cc1 | . | 0.325
NC(=O)NN=C1CCN(Cc2ccccc2)CC1 | -0.15 | 0.27
CC1CCN(C(=O)C2CCN(Cc3cccc(O)c3)CC2)CC1 | 1.25 | .
COc1ccc2o/c(=N\O)c(C(N)=O)cc2c1 | 1.35 | .
N#Cc1c(C(F)(F)F)cc(-c2cccs2)nc1SCC(=O)N1CCOCC1 | . | 28.2
Cc1ccc(Cn2ccsc2=NC(=O)COC(=O)Cn2c(C)csc2=O)cc1 | -3.3* | .
COC(=O)c1cc(NC(=O)c2ccc3c(=O)n4c(nc3c2)CCCCC4)cc(C(=O)OC)c1 | 1.4 | -0.28
Cc1ccc(-c2nnc(N3CCOCC3)c3ccccc23)cc1S(=O)(=O)N1CCOCC1 | . | 0.005
CCN(CC)P1(=S)OC(c2ccc(I)cc2)=Nc2c1c(C)nn2CCC#N (stereo not drawn) | 0.3 | .
O=C(Oc1nc2ccccc2s1)c1ccccc1C(=O)c1ccccc1 | 1.5 | 0
O=C(COc1cc(Cl)ccc1Cl)Nc1ncc(S(=O)(=O)c2ccc([N+](=O)[O-])cc2)s1 | . | 0.97
O=C(c1nn2c(C(F)(F)F)cc(-c3cccs3)nc2c1Br)N1CCCCC1 | . | -0.36
Cc1c(N2C(=O)CSC2c2ccccc2)c(=O)n(-c2ccccc2)n1C (stereo not drawn) | 1.85 | -0.085
CCOC(=O)c1c(Cl)c2ccccc2n(C)c1=O | -0.85 | 2.46
Cc1cccc(-c2nc(CSCC(=O)NCCc3ccccc3)c(C)o2)c1 | -0.05 | -0.23
Cc1cc(C)n(-c2ncnc3scc(-c4ccccc4Cl)c23)n1 | 0.6 | .
N#Cc1ccc(S(=O)(=O)NC2CCCCC2O)cc1 (stereo not drawn) | . | 0.375
Cc1cc2nc3s/c(=C\c4ccc(-c5ccccc5[N+](=O)[O-])o4)c(=O)n3c2cc1C | . | -0.91
Cc1ccnc(NC(=O)Cc2ccc(F)cc2)n1 | 0.15 | .
CCOC(=O)c1ccc(Nc2nc(Nc3ccc(C(=O)OCC)cc3)nc(N3CCOCC3)n2)cc1 | 1.3 | .
COc1ccc(C2NC(C(=O)O)Cc3c2[nH]c2ccccc32)c(OC)c1OC (stereo not drawn) | . | -0.17
COc1ccc(CCNC(=O)c2c[nH]c3ccc(S(=O)(=O)N4CCC5(CC4)OCCO5)cc3c2=O)cc1OC | . | -0.17
CC1CC(C)CN(C(=O)c2ccc(N3CCCC3=O)cc2)C1 (stereo not drawn) | 0.8 | -0.385
COc1cc(/C=C2\C(=O)NC(=S)N(c3ccc(F)cc3)C2=O)ccc1OCC(=O)O | . | -0.595
CCc1ccc(NC(=O)N2CCC3(CC2)OCCO3)cc1 | -0.1 | -0.02
COC(=O)CC1SC(=O)NC1=O (stereo not drawn) | . | -0.52
Cc1ccc(NC(=S)NN=C2CCCCCC2)c(C)c1 | . | -0.205
CN1C2CCC1CC(NC1CC3CCC(C1)N3C)C2 (stereo not drawn) | 0.05 | .
O=S(=O)(NCCNc1ncnc2scc(-c3ccccc3)c12)c1ccc(Cl)cc1 | -0.9 | -0.51
CS(=O)(=O)N1CCN(C(=O)COc2ccc(F)c(Cl)c2)CC1 | -0.65 | 0.54
CCC(C)n1c(=O)[nH]c2c(c1=O)CCC2 (stereo not drawn) | 0.05 | 0.335
N#Cc1cc2c(cc1C#N)N1CCCc3cccc(c31)O2 | -0.2 | -0.69
COC(=O)c1ccc2c(=O)n(Cc3ccc(C(=O)NCCCN4CCOCC4)cc3)c(=S)[nH]c2c1 | . | -0.505

Three compounds drawn at random from the list so far, as already listed:
SMILES | AID504770 | Ba CapD inh
COc1ccc2o/c(=N\O)c(C(N)=O)cc2c1 | 1.35 | .
Cc1ccc(NC(=S)NN=C2CCCCCC2)c(C)c1 | . | -0.205
COC(=O)c1cc(NC(=O)c2ccc3c(=O)n4c(nc3c2)CCCCC4)cc(C(=O)OC)c1 | 1.4 | -0.28

The listing continues:
SMILES | AID504770 | Ba CapD inh
Cc1onc(-c2ccccc2)c1NC(=O)N1CCN(C2c3ccccc3-c3ccccc32)CC1 | 0.9 | -0.47
CN=c1sc2ccccc2n1CC(O)c1ccccc1 (stereo not drawn) | 1.75 | .
CCN(C(=O)CSc1ccc(S(=O)(=O)N(C)C)cn1)C1=CCCC1 | -0.7 | .
CN(c1ccc(OCC(=O)N2CCOCC2)cc1)S(=O)(=O)c1cccs1 | -0.25 | .
COCCNc1nc(SCc2cccc(F)c2)nc2ccccc12 | . | 1.37
CCOC(=O)c1cnc2cc(-c3ccccc3)nn2c1C | . | 1.59
CCOC(=O)c1cc(-c2ccccc2)sc1NC(=O)CN1CCCC1 | 1.75 | 8.73
O=C(NCCO)c1ccc(OC2OCCOC2Oc2ccc(C(=O)NCCO)cc2)cc1 (stereo not drawn) | -0.65 | .
Cc1nc(CSc2nsc(/C=C/Nc3ccccc3)c2C#N)cs1 | . | 0.575
O=C(CSc1nn2cnnc2s1)N(C1CCCCC1)C1CCCCC1 | 0.05 | -0.015
Cc1ccc(NC(=O)NCCC(C)C)cc1NC(=O)NCCC(C)C | 0.15 | .
CCN=C1SC(CC(=O)Nc2ccccc2C#N)C(=O)N1CC (stereo not drawn) | . | -0.2
Cc1ccc(NC(=O)c2ccccc2NC(=O)c2ccccc2)cc1 | . | -0.115
O=C(CCC1CC(=O)Nc2ccccc21)NCCC1=CCCCC1 (stereo not drawn) | -0.05 | .
O=C(c1cc(F)cc2c1OCOC2)N1CCN(C(c2ccccc2)c2ccccc2)CC1 | 0.2 | 0.405

Record cards, as listed above.
`CN1C2CCC1CC(NC1CC3CCC(C1)N3C)C2` (stereo not drawn) as listed: AID504770: 0.05; Ba CapD inh: .
`CCOC(=O)c1c(Cl)c2ccccc2n(C)c1=O` as listed: AID504770: -0.85; Ba CapD inh: 2.46

Following part.
SMILES | AID504770 | Ba CapD inh
CCCCN(CC)S(=O)(=O)c1ccc(F)c(C(=O)Nc2cccc(C)c2C)c1 | . | -0.39
CC(=O)Nc1c(-c2ccccc2)nc2ccccn12 | -0.6 | 71.8
O=S(=O)(c1ccccc1)N1CCC(c2nc(-c3ccccc3)no2)CC1 | -1.2 | 0.305
CCCCSc1nnc(-c2ccco2)n1N | 0.1 | .
Nc1nnc(Sc2nc3cc(Cl)ccc3s2)s1 | 1.65 | -0.31
CC1(C)OC2OC(C(=O)NNC(=O)c3ccccc3)C3OC(C)(C)OC3C2O1 (stereo not drawn) | . | -0.075
O=C(NC1CCCCC1)c1ccc2ccccc2n1 | -0.25 | .
CCCCCCCCCCOCCOCCOC(=O)NNC(=O)CC1Sc2ccccc2NC1=O (stereo not drawn) | . | -0.105
CC(C)Cn1c(=O)c2ccccc2n2c(-c3cc(Cl)ccc3O)nnc12 | 0.55 | 0.175
Cc1ccc2c(c1)N(CCC(=O)N1CCC3(CC1)OCCO3)C(=O)CO2 | 0.6 | -0.35
Cc1ccc(OCc2n[nH]c(=S)n2C2CCCCC2)cc1 | -0.75 | .
CCOC(=O)C1CCCN(C(=O)CN2C(=O)/C(=C/c3ccc(OC)cc3)Oc3ccccc32)C1 (stereo not drawn) | 0.5 | 18.1
NC(=O)c1cc(NC(=O)COC(=O)C2CCCCC2)cc(C(N)=O)c1 | -0.65 | .
CCOC(=O)C1CCN(c2ncnc3nc[nH]c23)CC1 | 0.35 | .
[O-]/[N+](=C/c1ccc(F)cc1)c1ccccc1 | -0.3 | .
CCOC(=O)c1c(C)oc2c1c(C=NCc1cccnc1)c(O)c1ccccc12 | -0.85 | -0.32
O=C1Nc2ccccc2C1(O)C/C(=N/O)c1ccc2c(c1)OCCO2 (stereo not drawn) | -1.2 | 0.03
CSc1ccc(C2Nc3ccccc3C(=O)N2c2ccc(C)cc2)cc1 (stereo not drawn) | -0.05 | -0.82
O=C(CCc1nc2ccccc2n1-c1ccccc1)NCCO | -1.35 | .
CCCCC(=O)Nc1ncc(Br)s1 | 2.6 | -1.5
CC(=O)OC1CC(C)(C)N(OC(=O)c2ccc(-n3cnnn3)cc2)C(C)(C)C1 | 1.95 | -0.45
COCCN(C(=O)Nc1ccccc1C(F)(F)F)C1CCN(C)CC1 | . | -0.32
N#CC1=C(N)n2c(s/c(=C\c3ccccc3C(F)(F)F)c2=O)=C(C#N)C1c1ccccc1C(F)(F)F (stereo not drawn) | . | 0.27
CC(C)C(=O)N1c2ccccc2-c2c(ssc2=S)C1(C)C | . | -0.75
COc1cc(-c2nc(OC)cc(OC)n2)cc(Cl)n1 | . | -0.43
N#Cc1ccc(-c2ccc(C#N)cc2)cc1 | 0.45 | 0.725
CC(SCc1ccccc1)C(=O)NN=C1CCN(C)CC1 (stereo not drawn) | 0.65 | 0.46
CCOC(=O)N1CCN(S(=O)(=O)c2ccc(C(=O)Nc3nc4c(C)cc(C)cc4s3)cc2)CC1 | . | -0.38
CCOc1c(Br)cc(C(=O)OCc2nc(N)nc(Nc3ccccc3)n2)cc1OC | 0.45 | .
COc1cc(C2C(C(=O)OCC(C)C)=C(C)NC3=C2C(=O)CC(c2cccs2)C3)cc(OC)c1OC (stereo not drawn) | . | 25
Cc1c(CC(Cl)(Cl)Cl)c2c(n1-c1ccc([N+](=O)[O-])cc1)CCCC2=O | . | -0.315
C=CCn1c(COc2ccccc2)nnc1SCC(=O)N1CCc2ccccc21 | 1.7 | -0.17
C=CCSc1ncc(Cl)c(C(=O)Nc2ccc(OC)cc2OC)n1 | -0.2 | -1.21
OC1CCN(c2ncnc3nc[nH]c23)CC1 | -0.65 | -0.695
CCOc1ccc(CC(=O)Nc2cccc(-c3ccc(N4CCOCC4)nn3)c2)cc1 | 1.05 | .
S=C(NCCc1ccccc1)N/N=C/c1ccc(Cl)cc1 | . | -1.28
O=C(CSc1nc2ccsc2c(=O)n1Cc1ccco1)Nc1nccs1 | . | -0.165
O=C(Nc1ccnn1C1CCCC1)c1ccc(-n2cccn2)cc1 | -0.8 | .
O=[N+]([O-])c1ccc(C2CCCC/C2=N/Nc2cccc(Cl)n2)c([N+](=O)[O-])c1 (stereo not drawn) | . | -0.08
O=C(CNc1ccc(Cl)c(C(F)(F)F)c1)Nc1ccc(N2CCOCC2)cc1 | -0.6 | .
Cn1nc(C(=O)Nc2nccs2)ccc1=O | -0.45 | .
O=C1CSC2(CCCCC2)N1Nc1ccccc1 | -0.75 | 0.16
CC(C)C(NC(=O)c1ccccc1)C(=O)N1CCN(C/C=C/c2ccccc2)CC1 (stereo not drawn) | 0.75 | .
O=C(/C=C/c1ccccc1)OCC(=O)c1cc2ccccc2o1 | 1.4 | 0.03
NC(=O)C1CCN(c2ncnc3onc(-c4ccc(F)cc4)c23)CC1 | -0.35 | 1.74

Look-ups from the entries so far:
CCCCCCCCCCOCCOCCOC(=O)NNC(=O)CC1Sc2ccccc2NC1=O (stereo not drawn) in Ba CapD inh is entered as -0.105
CCOC(=O)c1c(Cl)c2ccccc2n(C)c1=O in AID504770 is entered as -0.85
CCOC(=O)C1CCCN(C(=O)CN2C(=O)/C(=C/c3ccc(OC)cc3)Oc3ccccc32)C1 (stereo not drawn) in AID504770 is entered as 0.5
N#Cc1cc2c(cc1C#N)N1CCCc3cccc(c31)O2 in Ba CapD inh is entered as -0.69
CC(C)C(=O)N1c2ccccc2-c2c(ssc2=S)C1(C)C in Ba CapD inh is entered as -0.75

Further results follow:
SMILES | AID504770 | Ba CapD inh
CN(C(=O)Cn1c(=O)n(Cc2ccc(C(=O)NCc3ccco3)cc2)c(=O)c2sccc21)c1ccccc1 | 0.4 | -0.065
COc1cccc(NS(=O)(=O)c2cc(C(=O)N3CCC(C)CC3)ccc2NCc2ccccc2OC)c1 | . | 2.68
C=C(C)COc1ccc(/C=C(/NC(=O)c2ccccc2)C(=O)O)cc1OC | 0.55 | -0.535
O=C(O)/C=C1\C(=O)Nc2ccccc21 | 0.65 | 18.1
Cc1cc(C)n(Cc2c(F)cccc2Cl)c(=O)n1 | -0.2 | -0.245
Cn1nnc2c(NCC(=O)C(C)(C)C)nc(Cc3ccc(Cl)cc3Cl)nc21 | 0.25 | 0.745
COc1ccc(NS(=O)(=O)c2c(C)nc3sccn3c2=O)cc1Cl | 0.35 | -1.36
CSc1nc2c(=O)n(C)c(=O)n(C)c2n1C | -1.05 | .
Cc1[nH]n(-c2ccccc2)c(=O)c1C(c1ccccc1O)c1c(C)[nH]n(-c2ccccc2)c1=O | . | -0.5
O=S(=O)(NC1Cc2ccccc2C1)c1cc(C(F)(F)F)ccc1Cl | . | -0.275
NC(=O)CCn1cnc2ccccc21 | -1.3 | -0.56
N#Cc1ccccc1OC(=O)CCN1C(=O)c2ccccc2C1=O | -0.65 | .
O=C(c1ccccc1)c1ccc2ccccc2n1 | 2.1 | 0.935
